# Compound activity (PubChem)
# SARS PLP yeast: qHTS of Yeast-based Assay for SARS-CoV PLP. AID 485353, 2010. 330,000 tested, 0.19% active. S. cerevisiae expressing SARS-CoV PLpro, growth rescue; control for the full effect not named in the record. Potency, µM (titrated, usually from 32.9 µM), inactives show at the top dose activity, positive = growth rescue; active means well fitted rising curve with a large enough effect; inconclusive means small, poorly fitted or top-dose-only effect; inactive means no such curve, though single readings can be large or run the other way; further: 0% is about no effect; nearly all actives have a fitted effect of over 55% in size; growth read by luminescence after 48 h
# Cruzain noTriton: qHTS Assay for Promiscuous and Specific Inhibitors of Cruzain (without detergent); purified cruzain, Z-FR-AMC fluorescence, no detergent; Potency, µM, inactives show max response, negative = inhibition, usual class: inhibitors; 200,000 tested, 2.3% active; Cruzipain (Trypanosoma cruzi), P25779;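 further: plate controls were enzyme without inhibitor for no effect and buffer without enzyme for full effect; nearly all actives have a fitted effect of over 40% in size; top concentration of the series not given in the record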
# Target sequence (P25779 123-467 limits assumed): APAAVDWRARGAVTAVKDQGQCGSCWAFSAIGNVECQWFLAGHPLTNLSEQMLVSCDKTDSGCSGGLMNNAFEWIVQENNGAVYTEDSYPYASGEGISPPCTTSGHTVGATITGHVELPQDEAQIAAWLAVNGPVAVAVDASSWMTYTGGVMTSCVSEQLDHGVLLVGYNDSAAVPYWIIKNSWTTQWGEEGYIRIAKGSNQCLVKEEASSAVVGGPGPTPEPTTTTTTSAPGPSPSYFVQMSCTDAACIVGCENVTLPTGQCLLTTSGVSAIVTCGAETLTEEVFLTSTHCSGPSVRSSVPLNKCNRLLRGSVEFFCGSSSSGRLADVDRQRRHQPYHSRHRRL
#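 Purified cruzain at 1.5 nM, pre-incubated 15 min with compound at room temperature in 100 mM sodium acetate pH 5.5, 5 mM DTT, 0.00005% Triton X-100. Reaction started with 2 uM Z-FR-AMC; AMC fluorescence increase over 60 s gives rate.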
# Cruzain Triton: qHTS Assay for Promiscuous and Specific Inhibitors of Cruzain (with detergent); Cruzipain (Trypanosoma cruzi), P25779; purified cruzain, Z-FR-AMC fluorescence, 0.01% Triton; Potency, µM, without a hit: max response, negative = inhibition, actives largely listed as inhibitors; 200,000 tested, 0.43% active;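 further: plate controls were neutral wells for no effect and buffer without enzyme for full effect; nearly all actives have a fitted effect of over 40% in size; top concentration of the series not given in the record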
#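 Read-out: AMC fluorescence (360 nm excitation, 450 nm emission), four reads over 2 min, first-to-third difference used. Conditions: cruzain 1.5 nM, Z-FR-AMC 2 uM, pH 5.5 acetate, 5 mM DTT, 0.01% Triton X-100.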
# RE007 growth inh: qHTS Assay for Inhibitors of the HIV-1 protein Vpr. S. pombe RE007 Vpr strain, BacTiter-Glo ATP luminescence, 24 h; control for the full effect not named in the record. Potency, µM (top dose mostly 92.2 µM), without a hit: at the highest dose activity change, negative = less growth. 360,000 tested, 0.21% active; active = well fitted falling curve with a large enough effect; inconclusive = small, poorly fitted or top-dose-only effect; inactive = no such curve, though single readings can be large or run the other way;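 further: on the % scale 0 is the no-effect control and ±100 the full control effect; nearly all actives have a fitted effect of over 50% in size; the assay follows cell death caused by Vpr and the record does not say whether a fall means rescue or toxicity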
#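 Fission yeast RE007 carrying one integrated HIV-1 vpr copy, seeded at OD 0.01 in PMG+AL medium with 23 nL pinned compound. Grown 24 h at 30 degrees; viability read by BacTiter-Glo luminescence after 5 min.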
# Lassa entry inh: qHTS for Inhibitors of binding or entry into cells for Lassa Virus | Lassa virus pseudotype entry inhibition, cell reporter; control for the full effect not named in the record | Potency, µM (top dose mostly 37.9 µM), inactives show at the highest dose activity change, negative = inhibition, hits mostly inhibitors | 300,000 tested, 1.2% active; active means well fitted inhibition curve with a large enough effect; inconclusive means small, poorly fitted or top-dose-only effect, or effect the other way; inactive means flat fitted curve, though single readings scatter; tested in HEK293 cells; further: on the % scale 0 is the no-effect control and ±100 the full control effect; nearly all actives have a fitted effect of over 50% in size; luciferase read-out
# NS1 inh: qHTS Assay for Inhibitors of Influenza NS1 Protein Function; S. cerevisiae slowed by influenza A NS1, growth recovery by OD600; Potency, µM (titrated, usually from 46.1 µM), inactives show at the highest dose activity, positive = more growth; 270,000 tested, 0.4% active; AID 2326, 2010; active means well fitted rising curve with a large enough effect; inconclusive means small, poorly fitted or top-dose-only effect; inactive means no such curve, though single readings can be large or run the other way; further: nearly all actives have a fitted effect of over 50% in size
#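 A cell-based growth assay was used: compounds that relieve NS1-induced slow growth of budding yeast raise OD600. Assay medium was yeast nitrogen base with ammonium sulphate and -URA supplement, pH 6.0, with 2% galactose.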
# MARV entry inh: qHTS for inhibitors of binding or entry into cells for Marburg Virus; 300,000 tested, 1.8% active; Marburg virus pseudotyped entry inhibition, cell reporter; control for the full effect not named in the record; about a third of the inactives were read at about 46 µM; Potency, µM (highest dose often 37.8 µM), for inactives: top-dose activity change, negative = inhibition, actives largely listed as inhibitors; active = well fitted inhibition curve with a large enough effect; inconclusive = small, poorly fitted or top-dose-only effect, or effect the other way; inactive = flat fitted curve, though single readings scatter; tested in HEK293 cells; about a fifth of its hits are not listed in these tables; further: on the % scale 0 is the no-effect control and ±100 the full control effect; luciferase read-out
# 2A StopGo: High Throughput Screening for Foot and Mouth Disease Virus Antivirals; AID 1159524, 2015; Potency, µM (series often up to 57.9 µM), for the others: top-dose signal change, negative = less light; 410,000 tested, 1.2% active; human cells with a luciferase reporter of 2A StopGo recoding; control for the full effect not named in the record; active = well fitted falling curve with a large enough effect; inconclusive = small, poorly fitted or top-dose-only effect; inactive = no such curve, though single readings can be large or run the other way; tested in HEK293T cells; further: on the % scale 0 is the no-effect control and ±100 the full control effect; nearly all actives have a fitted effect of over 45% in size; luciferase light after 4 h
# The depositor's hits bear a star; ? = inconclusive; nt = no result given; & = joins results of further samples; [ ] = remark or other dose. Unless noted, the call rests on the fitted dose curve; in most records, active means well fitted curve in the direction sought with a large enough effect; inconclusive means small, poorly fitted or top-dose-only effect, or another doubt; inactive means no such curve, though single readings can be large; an effect the other way counts as inactive or inconclusive. Potency means the concentration at half of the fitted maximal effect.
SMILES,SARS PLP yeast,Cruzain noTriton,Cruzain Triton,RE007 growth inh,Lassa entry inh,NS1 inh,MARV entry inh,2A StopGo
CC(C)CCNC(=O)COc1ccc2c3c(c(=O)oc2c1)CCC3,1.7%,?,7.1%,11.6%,22.3%,1.9%,9.4%,-11.8%
COc1ccc(NS(=O)(=O)c2ccc3c(c2)OCCO3)cc1OC,0.5%,nt,nt,-13.5%,-14.2%[46.1 µM],?,?,2.8%
CCC(Sc1ccc2nnc(-c3cccnc3)n2n1)C(=O)O (configuration not stated),1.1%,-12.7%,-4.5%,-3.8%,nt,-6.6%,nt,-9.6%
CCN1CCc2nc(NC(=O)c3ccc(S(=O)(=O)N(C)C)cc3)sc2C1,-4.1%,nt,nt,2.4%,10.3%,nt,0.7%[46.1 µM],50.4%[activator]
CCCCC(=O)Nc1cccc(-c2nnc(-c3ccccc3)o2)c1,18.0%,2.2%,-1.6%,-6.2%,27.5%,-114.7%,12.9%,-102.0%
CN(C)C(CNc1ncnc2sccc12)c1ccccc1 (configuration not stated),0.1%,nt,nt,4.8%,2.0%,nt,?,-3.8%
COCCN(C(=O)CSc1nnc(-c2ccccc2F)n1N)c1c(N)n(Cc2ccccc2)c(=O)[nH]c1=O,-3.6%,nt,nt,3.9%,8.0%,7.0%,?,-21.4%
Oc1sc(C=Nc2ccccc2)c2ccccc12,-21.9%,-6.0%,-10.4%,-25.4%,10.6%,-2.0%,-22.1%,53.7%[activator]
O=CN1CCN(C(=O)COc2ccc(Cl)cc2Br)CC1,-13.3%,1.7%,-7.5%,-6.4%,2.3%,3.1%,7.2%,-19.2%
COCC1CCN(C(=O)c2cc(COc3ccccc3SC)on2)C1 (configuration not stated),1.7%,nt,nt,-7.1%,-18.4%[46.1 µM],4.5%,11.5%[46.1 µM],15.1%
O=C(Nc1cccc(F)c1)NC1CCCc2ccccc21 (configuration not stated),-0.7%,nt,nt,2.0%,?,-56.3%,?,22.8%
COc1ccc(CCNC(=O)c2ccc3c(c2)nc(C)n3-c2ccc(Br)cc2)cc1OC,nt,?,-4.8%,nt,-17.3%[46.1 µM],nt,nt,0.0%
CCN(c1ccccc1)S(=O)(=O)c1cc(C(=O)NCc2ccccn2)ccc1C,1.7%,nt,nt,1.3%,-15.9%,nt,13.3%,-5.3%
CC1=CC(C)(C)Nc2ccc(OC(=O)CN3C(=O)c4ccccc4C3=O)cc21,0.0%,4.4%,-6.4%,-19.0%,?,-25.3%,?,?
CC1COc2ccccc2N1C(=O)c1cccnc1Cl (configuration not stated),0.9%,nt,nt,10.2%,20.5%[46.1 µM],1.9%,-4.1%[46.1 µM],9.5%
CCc1ccc(C(O)(C(C)C)C(CN2CCOCC2)c2ccccc2)cc1 (configuration not stated),-5.6%,nt,nt,-9.0%,nt,-8.5%,nt,0.0%
COC(=O)c1cc(S(=O)(=O)NCC(C)c2ccccc2)cn1C (configuration not stated),6.1%,nt,nt,7.2%,nt,-6.2%,nt,23.9%
CCCCn1c(N)c(N(CCOC)C(=O)COC(=O)COc2c(C)cc(C)cc2C)c(=O)[nH]c1=O,-2.1%,nt,nt,-12.9%,0.6%,nt,0.7%,-2.9%
Cc1cccc(OCC(=O)Nc2ccccc2C(F)(F)F)c1,28.6%,11.6%,-5.1%,-5.4%,-1.0%,0.7%,?,25.2%
Cc1ccccc1NC(=O)c1ccc(S(=O)(=O)N2CCCC2)cc1,-1.8%,nt,nt,-7.0%,-6.1%[46.1 µM],-6.0%,?,-0.6%
FC(F)(F)c1ccccc1NC(=S)NN=C1CCCCCC1,-0.1%,nt,nt,-4.1%,-27.7%[46.1 µM],6.5%,-20.2%[46.1 µM],11.3%
C=CCn1cc(Cl)cc(C(=O)Nc2ccccc2)c1=O,5.5%,nt,nt,-8.3%,15.2%[46.1 µM],-35.6%,2.6%[46.1 µM],1.1%
ClCCN1C2=NCCCN2c2ccccc21,1.0%,nt,nt,-16.1%,9.7%,0.9%,-2.2%,-10.2%
CCOC(=O)CSc1nnc2c(n1)C1(C)CCC2C1(C)C (configuration not stated),9.8%,4.5%,1.0%,2.8%,11.0%,-11.9%,2.4%,13.2%
O=C(COc1ccc(Br)cc1)Nc1ccc2c(c1)C(=O)NC2=O,-1.3%,nt,nt,-13.8%,-8.8%,0.5%,-2.8%[46.1 µM],5.7%
Cc1cc(C)c(NC(=O)CSCc2c(C)noc2C)c(C)c1,4.1%,nt,nt,7.6%,-2.4%,nt,?,-14.1%
Cc1ccccc1-c1nc(CN2CCC(C(=O)N3CCC(C(N)=O)CC3)CC2)c(C)o1,2.1%,3.7%,-0.9%,-11.2%,nt,?,nt,-7.2%
CCN(CC)c1ccc(/C=N/NC(=S)NCc2ccccc2)c(O)c1,10µM*,?,-7.0%,8.7%,?,17.4%,?,-34.4%
CN(C)c1ccccc1C(=O)c1ccccc1N(C)C,1.2%,-2.2%,-18.1%,-11.2%,-6.1%,8.91µM*,?,82.7%[activator]
Cc1cccc(N2CCN(C(=O)c3nn(C)c4c3CSc3ccccc3-4)CC2C)c1 (configuration not stated),nt,8.0%,-3.1%,nt,0.1%[46.1 µM],nt,16.6%[46.1 µM],-6.3%

# Of the compounds above, four contain a Cl atom.
SMILES,SARS PLP yeast,Cruzain noTriton,Cruzain Triton,RE007 growth inh,Lassa entry inh,NS1 inh,MARV entry inh,2A StopGo
O=CN1CCN(C(=O)COc2ccc(Cl)cc2Br)CC1,-13.3%,1.7%,-7.5%,-6.4%,2.3%,3.1%,7.2%,-19.2%
CC1COc2ccccc2N1C(=O)c1cccnc1Cl (configuration not stated),0.9%,nt,nt,10.2%,20.5%[46.1 µM],1.9%,-4.1%[46.1 µM],9.5%
C=CCn1cc(Cl)cc(C(=O)Nc2ccccc2)c1=O,5.5%,nt,nt,-8.3%,15.2%[46.1 µM],-35.6%,2.6%[46.1 µM],1.1%
ClCCN1C2=NCCCN2c2ccccc21,1.0%,nt,nt,-16.1%,9.7%,0.9%,-2.2%,-10.2%

# A second format for some results above.
# Every second line gives: SARS PLP yeast	Cruzain noTriton	Cruzain Triton	RE007 growth inh	Lassa entry inh	NS1 inh	MARV entry inh	2A StopGo
- Cc1ccccc1-c1nc(CN2CCC(C(=O)N3CCC(C(N)=O)CC3)CC2)c(C)o1
    2.1%	3.7%	-0.9%	-11.2%	nt	?	nt	-7.2%
- CCN(CC)c1ccc(/C=N/NC(=S)NCc2ccccc2)c(O)c1
    10µM*	?	-7.0%	8.7%	?	17.4%	?	-34.4%

# Next results follow.
SMILES,SARS PLP yeast,Cruzain noTriton,Cruzain Triton,RE007 growth inh,Lassa entry inh,NS1 inh,MARV entry inh,2A StopGo
CC(C)(C)NC(=O)Cn1nnnc1-c1nonc1N,1.9%,-11.5%,2.2%,26.2%,1.3%,?,19.8%,17.2%
O=C(O)CSc1c2c(nc3cc(C(=O)NCCN4CCOCC4)ccc13)CCC2,4.1%,nt,nt,5.5%,5.7%,-2.4%,2.9%[46.1 µM],-2.4%
COC(=O)c1sc(N2CCCCC2)c(C#N)c1N,0.8%,nt,nt,7.4%,17.5%,-2.7%,12.8%,25.0%
Cc1scc(C(=O)N2CCN(S(C)(=O)=O)CC2)c1-c1ccccc1,-8.5%,8.2%,2.6%,0.9%,2.1%,-4.8%[9.22 µM],13.8%,-13.3%
O=C1C2CCCN2C(=O)N1CCCCN1CCN(c2cccc(Cl)c2)CC1 (configuration not stated),3.5%,-2.9%,-3.4%,0.4%,-10.8%,1.6%,-43.5%,-5.7%
CCOC(=O)N1CCN(C(=O)CN2C(=O)COc3ccc(S(=O)(=O)N4CCOCC4)cc32)CC1,-0.9%,nt,nt,-0.4%,nt,-4.6%,nt,-5.0%
CC(Sc1ccc(Cl)cc1)C(=O)Nc1ccc(S(=O)(=O)N2CCOCC2)cc1 (configuration not stated),-3.8%,-6.9%,-5.3%,-6.2%,-10.3%,-22.3%,-11.1%,-26.7%
O=C(c1ccc2c(c1)N(Cc1cccc(F)c1)C(=O)c1ccccc1S2)N1CCCC1,nt,?,-6.7%,nt,-24.0%[46.1 µM],nt,nt,-6.7%
CC1(C)NC(=O)N(CC(=O)NNC(=O)c2ccccc2F)C1=O,2.2%,nt,nt,1.5%,4.8%,nt,4.5%,15.6%
Cc1cc(C)c2c(CN3CCC(C)CC3)cc(=O)oc2c1C,-0.3%,nt,nt,-7.8%,nt,1.0%,nt,-11.6%
CCOc1ccc(Nc2nc(NCC3CCCO3)c3ccccc3n2)cc1 (configuration not stated),-1.6%,nt,nt,4.7%,?,nt,?,25.1µM*
CN(C(=O)C1CCCO1)C1CCS(=O)(=O)C1 (configuration not stated),-1.4%,nt,nt,5.4%,1.1%,nt,0.6%[46.1 µM],-2.4%
COc1ccc(CCNC(=O)CCn2c(=O)c3cccn3c3ccc(F)cc32)c(OC)c1OC,-1.0%,13.9%,0.0%,11.6%,-3.3%[46.1 µM],-2.1%,nt,-7.6%&-13.3%
COc1ccc(N2CCN(C(=O)c3[nH]c4ccc(OC)cc4c3C)CC2)cc1,1.1%,nt,nt,-8.6%,-15.8%[46.1 µM],-14.4%,?,9.8%
NS(=O)(=O)c1ccc(F)c(C(=O)O)c1,0.5%,nt,nt,15.3%,nt,0.1%,nt,-11.8%
CCCCCCS(=O)[C@H]1CS(=O)(=O)C[C@@H]1S(=O)CCCCCC (some centres not stated),5.5%,8.7%,6.4%,-23.7%,6.4%,?,1.4%,-24.5%
COc1ccc(-c2nc3sc(CCNC(=O)C(=O)Nc4ccc(C)c(C)c4)c(C)n3n2)cc1,nt,-9.7%,-0.7%,nt,-4.7%[46.1 µM],nt,nt,18.3%
COC(=O)C1CN(C(=O)c2cccc(OC(F)F)c2)c2ccccc2O1 (configuration not stated),1.3%,nt,nt,-5.3%,nt,2.2%,0.8%[46.1 µM],-17.1%
